# rRNA inh HTS = inhibitors of bacterial rRNA selective over humanized ribosomes. E. coli WT GFP vs humanized-ribosome RFP mutants, fluorescence, 24 h; active compounds read low; DMSO median 0, no signal -100. 350,000 tested, 1.6% active. GFP signal change (wild-type ribosome), % (concentration not given with the values). AID 720706;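 active means significant combined selectivity score with lowered wild-type GFP, culture density cut under 30%, mutant RFP and density less affected; inactive means any of these conditions unmet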; further: one replicate is shown; some compounds called inactive have numbers as strong as hits
# FGF22 binding = binders of recombinant human FGF22 by thermal shift; 340,000 tested, 1.5% active; Q9HCT0; SYPRO orange fluorescence; percent of sucrose octasulfate shift, DMSO zero; AID 651658; calls only at 9.99 µM;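 active means melting point raised past a set limit in the mean and every replicate; three in four hits are not shown here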
# Target sequence (Q9HCT0 whole entry, looked up): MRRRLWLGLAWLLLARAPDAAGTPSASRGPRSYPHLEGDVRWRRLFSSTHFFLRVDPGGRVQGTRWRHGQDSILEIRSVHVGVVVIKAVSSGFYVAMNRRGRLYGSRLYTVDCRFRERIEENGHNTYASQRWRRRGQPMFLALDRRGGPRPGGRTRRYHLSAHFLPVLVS
# rRNA inh HTS OD600 = also measured in rRNA inh HTS; calls as there; OD600 change, %; measured here: OD600 growth;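 optical density of the mix in the first replicate; 0 = DMSO median and -100 = no signal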
# rRNA inh HTS RFP = second read-out of rRNA inh HTS, no call of its own (marks repeat the call); RFP signal change, %; measured here: RFP humanized mutant strains;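 first replicate; 0 = DMSO median and -100 = no signal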
# * = called active by the depositor; i = inactive; . = not tested or not shown. This is a subset. The share of hits here may be higher or lower than overall.
Compound	rRNA inh HTS RFP	rRNA inh HTS	FGF22 binding	rRNA inh HTS OD600
C[C@@H]1CN([C@@H](C)CO)C(=O)c2cccc(NC(=O)Nc3ccc(F)cc3)c2O[C@H]1CN(C)Cc1ccc(C(F)(F)F)cc1	-2.2	-2.3	i	-2.2
CC(=O)NC[C@@H]1[C@@H](c2ccc(-c3ccccc3F)cc2)[C@@H](CO)N1C(C)=O	-3.4	0.0	i	-2.3
O=C(C[C@@H]1C[C@@H]2c3cc(NC(=O)C4CCOCC4)ccc3O[C@@H]2[C@@H](CO)O1)NCc1cccnc1	-1.3	1.6	i	10.3
C[C@@H]1CN([C@H](C)CO)C(=O)c2cccc(NC(=O)c3cnccn3)c2O[C@H]1CN(C)S(=O)(=O)c1cccs1	-1.5	-1.0	i	-6.6
CN(C)c1ccc2c(c1)[C@H]1C[C@H](CC(=O)O)O[C@H](CO)[C@H]1O2	-0.6	6.8	i	0.8
C[C@@H]1CN([C@H](C)CO)C(=O)c2cc(NS(C)(=O)=O)ccc2O[C@@H]1CN(C)C(=O)Nc1ccc(C(F)(F)F)cc1	-0.3	0.2	i	-3.4
COc1ccc2c3c(n(C)c2c1)[C@H](CO)N(CC1CC1)CC31CCN(C(=O)CN2CCOCC2)CC1	-2.9	3.3	i	2.6
COc1cccc(S(=O)(=O)N(C)C[C@H]2OCc3ccccc3-c3ccccc3C(=O)N([C@@H](C)CO)C[C@H]2C)c1	2.3	0.1	i	-11.6
O=C(C[C@H]1CC[C@H]2[C@@H](COC[C@@H](O)CN2S(=O)(=O)c2cccc(F)c2)O1)NCc1ccc2c(c1)OCO2	6.3	2.8	i	3.9
CN1C(=O)c2cc(NS(=O)(=O)c3ccc(Cl)cc3)ccc2OC[C@H]2O[C@@H](CC(=O)Nc3ccc4c(c3)COC4)CC[C@@H]21	2.0	-10.6	i	-22.7
COc1ccc(S(=O)(=O)Nc2ccc3c(c2)[C@H]2C[C@@H](CC(=O)N(C)C)O[C@H](CO)[C@H]2O3)cc1	-1.9	-2.3	i	3.3
Cc1noc(C)c1NC(=O)Nc1cccc2c1O[C@H](CN(C)Cc1ccncc1)[C@@H](C)CN([C@@H](C)CO)C2=O	-1.4	1.0	i	-1.6
Cc1noc(C)c1NC(=O)N(C)C[C@@H]1Oc2c(NC(=O)C3CCCCC3)cccc2C(=O)N([C@H](C)CO)C[C@H]1C	0.4	1.4	i	6.4
CO[C@H]1CN(C)C(=O)c2ccc(NC(=O)NC(C)C)cc2OC[C@@H](C)N(Cc2ccccn2)C[C@@H]1C	-2.9	-3.4	i	3.1
CC(C)C#Cc1cnc2c(c1)C(=O)N([C@@H](C)CO)C[C@@H](C)[C@H](CN(C)C(=O)Nc1ccccc1)O2	-1.7	2.8	i	8.6
C[C@H]1CN([C@@H](C)CO)C(=O)c2cc(NS(=O)(=O)c3ccc(Cl)cc3)ccc2O[C@@H]1CN(C)C(=O)Nc1ccc(F)cc1	-0.4	5.5	i	1.3
COc1ccc(C2CC(=O)C(c3ccc4ccccc4c3)=CN2Cc2ccccc2)cc1 (stereo not drawn)	1.6	-11.0	i	12.4
CCC(=O)N[C@@H]1C=C[C@H](CC(=O)NCCN2CCCCC2)O[C@@H]1CO	0.1	0.0	i	0.4
O=C(NCc1ccc2c(c1)OCO2)[C@@H]1[C@@H](CO)[C@@H]2Cn3c(cccc3=O)[C@H]1N2Cc1cncnc1	-1.8	-1.0	i	4.0
CC(C)CC#Cc1cnc2c(c1)C(=O)N([C@H](C)CO)C[C@@H](C)[C@H](CN(C)C(=O)NC1CCCC1)O2	-1.3	2.3	i	-6.9
O=C(NCC(F)(F)F)[C@@H]1[C@@H](CO)[C@@H]2Cn3c(cccc3=O)[C@H]1N2CC1CC1	-1.4	0.7	i	8.7
C[C@@H]1CN([C@@H](C)CO)C(=O)CCCn2cc(nn2)CO[C@@H]1CN(C)C(=O)Nc1ccc(-c2cccs2)cc1	0.4	-3.2	i	-1.0
C[C@@H]1CCCCO[C@H](CN(C)Cc2ccc(C(=O)Nc3ccccc3N)cc2)[C@@H](C)CN([C@H](C)CO)C(=O)c2cc(NS(=O)(=O)c3ccccc3)ccc2O1	0.6	0.6	i	-0.7
C[C@@H]1CN([C@H](C)CO)C(=O)c2cc(NS(=O)(=O)c3ccc(F)cc3)ccc2O[C@@H](C)CCCCO[C@H]1CN(C)Cc1ccc(Cl)c(Cl)c1	10.9	0.9	i	-18.1
CC(C)NC(=O)Nc1ccc2c(c1)C(=O)N([C@H](C)CO)C[C@H](C)[C@H](CN(C)C)OCCCC[C@@H](C)O2	-7.0	3.4	i	7.2
C[C@H]1CN([C@@H](C)CO)C(=O)c2ccccc2-c2ccccc2CO[C@H]1CN(C)Cc1cccc(C(=O)O)c1	-0.3	-1.2	i	0.6
CN(C)C(=O)[C@H]1[C@H](CO)[C@H]2Cn3c(ccc(C4=CCCCC4)c3=O)[C@@H]1N2Cc1ccccc1	2.0	-1.7	i	-2.2
C[C@@H]1CN([C@H](C)CO)C(=O)c2cc(NC(=O)Nc3ccc4c(c3)OCO4)ccc2O[C@@H](C)CCCCO[C@@H]1CN(C)C(=O)C1CCCCC1	-1.1	-3.6	i	-3.1
C[C@@H]1CN([C@@H](C)CO)S(=O)(=O)c2ccc(C#CC3CC3)cc2O[C@@H]1CN(C)CC1CCOCC1	0.5	-0.3	i	-13.1
Cc1ccc(S(=O)(=O)Nc2ccc3c(c2)C(=O)N([C@H](C)CO)C[C@H](C)[C@@H](CN(C)S(=O)(=O)c2ccccc2)O3)cc1	3.5	-2.1	i	7.5
Cc1noc(C)c1NC(=O)Nc1ccc2c(c1)C(=O)N(C)[C@@H]1CC[C@@H](CC(=O)N[C@@H]3CCN(Cc4ccccc4)C3)O[C@@H]1CO2	-1.3	-0.1	i	2.2
COc1ccc(C#Cc2cnc3c(c2)C(=O)N([C@@H](C)CO)C[C@@H](C)[C@@H](CN(C)C(=O)c2ccccc2F)O3)cc1	-0.2	3.8	i	1.0
C[C@@H]1CN([C@@H](C)CO)C(=O)c2cc(-c3cccc(C(=O)N(C)C)c3)cnc2O[C@H]1CN(C)C	-2.8	5.7	i	11.2
C[C@H](CO)N1C[C@H](C)[C@H](CN(C)C(=O)c2ccc(F)cc2)Oc2ncc(C3=CCCCC3)cc2C1=O	0.3	-3.1	i	-8.8
CCn1c2c(n(C(C)=O)c1=O)C[C@@H](c1ccccc1)[C@@H](C)[C@@H](C(=O)N1CCCC1)C2	2.5	10.1	.	5.8
CO[C@H]1CN(C)C(=O)c2cccc(C#N)c2OC[C@H]2O[C@H](CC[C@@H]2OC)CCN(C)C(=O)[C@H]1C	-3.1	1.8	i	11.8
C[C@H](NC(=O)C[C@@H]1C[C@H]2c3cc(NC(=O)CN(C)C)ccc3O[C@H]2[C@H](CO)O1)c1ccccc1	-0.9	-1.5	i	9.6
CCCC(=O)Nc1ccc2c(c1)OC[C@@H](C)N(C(=O)C1CCCC1)C[C@@H](C)[C@@H](OC)CN(C)C2=O	-0.7	-0.5	i	0.5
C[C@@H]1CN([C@@H](C)CO)C(=O)c2cc(NC(=O)Nc3ccc(C(F)(F)F)cc3)ccc2O[C@@H](C)CCCCO[C@H]1CN(C)CC1CCCCC1	.	i	i	.
CCC(=O)N1CC[C@@H]2[C@H]1c1cc(-c3ccc(F)cc3)ccc1N[C@@H]2CO	-1.6	-7.4	i	-22.4
C/C=C/c1ccc2c(c1)O[C@@H](CN(C)C(=O)CC1CC1)[C@@H](C)CN([C@@H](C)CO)S2(=O)=O	0.5	-5.9	i	-7.3
CCCN1[C@H](C(=O)N(C)C)[C@@H](CO)[C@@H]2Cn3c(ccc(-c4cccc(F)c4)c3=O)[C@@H]21	0.1	3.8	i	4.5
C[C@H]1CN([C@@H](C)CO)C(=O)Cc2cc(NC(=O)Nc3ccccc3)ccc2O[C@H]1CN(C)Cc1ccc(C(=O)Nc2ccccc2N)cc1	-13.0	-51.9	i	-62.7
C[C@@H]1CN([C@H](C)CO)C(=O)c2cc(NC(=O)Nc3ccc(C(F)(F)F)cc3)ccc2O[C@@H](C)CCCCO[C@@H]1CN(C)Cc1ccc(Cl)c(Cl)c1	-6.4	-6.0	i	0.9
COCC(=O)N1[C@@H]2c3ccc(-c4ccc(F)cc4)c(=O)n3C[C@@H]2[C@@H](CO)[C@@H]1C(=O)Nc1ccccc1	-1.8	-1.4	i	-2.2
COc1ccc(S(=O)(=O)N(C)C[C@H]2Oc3c(NC(=O)NC(C)C)cccc3C(=O)N([C@@H](C)CO)C[C@@H]2C)cc1	-0.7	-3.6	i	2.8
Cc1noc(C)c1S(=O)(=O)Nc1ccc2c(c1)C(=O)N([C@H](C)CO)C[C@H](C)[C@H](CN(C)C)O2	-0.8	4.5	i	5.1
Cc1noc(C)c1NC(=O)N[C@H]1CC[C@@H](CC(=O)N2CCN(C)CC2)O[C@H]1CO	-0.1	-0.1	i	-2.9
COc1ccc(CN(C)C[C@H]2OCCCC[C@H](C)Oc3ccc(NS(=O)(=O)c4ccc(OC)cc4)cc3C(=O)N([C@H](C)CO)C[C@H]2C)cc1	1.9	5.6	i	-7.9
Cc1ccc(S(=O)(=O)N(C)C[C@H]2Oc3ccc(NC(=O)Cn4cnnn4)cc3CC(=O)N([C@H](C)CO)C[C@@H]2C)cc1	-4.0	0.1	i	8.5
COc1ccc(S(=O)(=O)Nc2ccc3c(c2)CC(=O)N([C@@H](C)CO)C[C@H](C)[C@H](CN(C)S(=O)(=O)c2ccc(Cl)cc2)O3)cc1	-3.1	0.1	i	-5.1
O=C(Nc1ccc2c(c1)OCO2)N[C@@H]1CC[C@@H](CCNC(=O)C2CCCCC2)O[C@H]1CO	-3.8	3.8	i	5.7
C[C@@H]1CN([C@H](C)CO)S(=O)(=O)c2ccc(C#CCN(C)C)cc2O[C@@H]1CN(C)CC1CC1	2.2	2.8	i	10.0
C[C@@H]1CCCCO[C@H](CN(C)C(=O)Nc2ccccc2)[C@H](C)CN([C@@H](C)CO)C(=O)c2cc(NC(=O)Cc3ccccc3)ccc2O1	1.5	2.3	i	-4.5
Cc1ccc(S(=O)(=O)N(C)C[C@@H]2Oc3ccc(NS(=O)(=O)c4c(C)noc4C)cc3CC(=O)N([C@H](C)CO)C[C@@H]2C)cc1	1.8	-2.1	i	-5.7
COc1ccc(NC(=O)Nc2ccc3c(c2)C(=O)N([C@H](C)CO)C[C@@H](C)[C@@H](CN(C)C(=O)C2CCCCC2)OCCCC[C@@H](C)O3)cc1	1.8	0.6	i	3.2

# Going on with the list:
Compound	rRNA inh HTS RFP	rRNA inh HTS	FGF22 binding	rRNA inh HTS OD600
C[C@H](CO)N1C[C@H](C)[C@H](CN(C)C(=O)NC2CCCCC2)OCCCC[C@H](C)Oc2ccc(NC(=O)Nc3ccc4c(c3)OCO4)cc2C1=O	-1.5	4.5	i	0.2
COc1ccc(-c2cnc3c(c2)C(=O)N([C@H](C)CO)C[C@@H](C)[C@H](CN(C)C(=O)NC2CCCC2)O3)cc1	-0.8	-2.0	i	2.6
COc1ccccc1CNC(=O)C[C@H]1CC[C@@H](NC(=O)CN(C)C)[C@@H](CO)O1	0.0	1.7	i	0.8
CO[C@@H](CN(C)C(=O)c1ccc2c(c1)OCO2)[C@H](C)CN([C@H](C)CO)S(=O)(=O)c1ccc(C)cc1	-4.7	-2.4	i	14.6
CO[C@H]1CN(C)C(=O)c2ccc(NC(=O)c3cnccn3)cc2OC[C@H](C)NC[C@H]1C	0.2	5.7	i	-1.8
C[C@@H](O)C#Cc1ccc2c(c1)O[C@@H](CN(C)Cc1ccccn1)[C@@H](C)CN([C@@H](C)CO)S2(=O)=O	-0.1	-1.3	i	-3.1
Cc1ccc(S(=O)(=O)N(C)C[C@@H]2Oc3c(NC(=O)c4nc5ccccc5s4)cccc3C(=O)N([C@@H](C)CO)C[C@@H]2C)cc1	-0.9	0.8	i	4.0
C[C@@H]1CN([C@@H](C)CO)C(=O)c2cccc(NC(=O)c3ccc(-c4nccs4)cc3)c2O[C@H]1CN(C)Cc1ccc(C(=O)Nc2ccccc2N)cc1	-1.8	4.6	i	3.5
CO[C@H]1CN(C)C(=O)c2ccc(NC(=O)c3ccc4c(c3)OCO4)cc2OC[C@H](C)NC[C@@H]1C	1.1	1.3	i	5.3
O=C(Cc1ccncc1)NCC[C@@H]1CC[C@H](NC(=O)C2CC2)[C@H](CO)O1	-2.9	3.0	i	4.8
C[C@@H]1CCCCO[C@H](CN(C)C(=O)Nc2ccc(C(F)(F)F)cc2)[C@@H](C)CN([C@H](C)CO)C(=O)c2cc(NC(=O)Nc3ccc(F)cc3)ccc2O1	0.3	3.1	i	5.4

# Screening results from PubChem BioAssay.
